Compound activity deposited in PubChem by Southern Research Institute.
total CFTR = total CFTR protein upregulators, primary screen, cell-based, HeLa F508del-CFTR, immunofluorescence, viability (AID 1224863) | 10,000 compounds, 0.1% hits | HeLa F508del-CFTR, immunofluorescence total CFTR, 24 h; by the record results were divided by relative cell number; some inactives read as strong as hits | calls, or highest fold increase where a dose series was run; in the data nearly all actives have a first-pass fold increase above 1.5; a few of its hits are not listed in these tables;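 further: total CFTR protein by anti-CFTR immunofluorescence in fixed cells; first pass at 25 µM or 10 µg/mL by library and series up to twice that; 1 = untreated cells; first-pass hits also needed half or more of the cells alive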
total CFTR fold 25 µM = recorded beside total CFTR, whose call it bears; fold increase; measured here: primary screen single dose 25 uM; library dosed in µM
total CFTR fold 10 ug/mL = second read-out of total CFTR, no call of its own (marks repeat the call); fold increase; measured here: primary screen 10 ug/mL
total CFTR viability 25 µM = further read-out of total CFTR, marked with its call; viability, %; measured here: primary viability 25 uM; library dosed in µM;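 0% = killed and 100% = untreated cells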
total CFTR viability 10 ug/mL = further read-out of total CFTR, marked with its call; viability, %; measured here: primary viability 10 ug/mL;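 0% = killed and 100% = untreated cells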
The depositor's hits bear a star; i = inactive; . = no result given; & = joins results of further samples.

SMILES	total CFTR	total CFTR fold 10 ug/mL	total CFTR viability 10 ug/mL	others
CCONC(=O)c1sc2nc3n(c(=O)c2c1C)CCCCC3	i	0.96	92.0
CCC(C)C(N)C(=O)NCCN1CCOCC1 (centres undefined)	i	0.98	89.0
O=[N+]([O-])c1ccc(Sc2nc3ccccc3s2)c2ncccc12	i	0.92	91.0
COC(=O)c1sc2nc(C)nc(N(C)Cc3cc(C)on3)c2c1C	i	0.96	101.0
CN(C)C(=O)Cn1cnc2ccc(Br)cc2c1=O	i	1	99.0
O=C(c1ccc(OCCN2CCCCC2)cc1)c1c(-c2ccc(O)cc2)sc2cc(O)ccc12	i	.	.	total CFTR fold 25 µM=0.97&1.16&1.03;total CFTR viability 25 µM=91.0&86.0&78.0
COC(=O)/C=C/c1ccc(OCC(=O)c2ccc(OC(F)F)cc2)c(OC)c1	i	1.05	94.0
COC(=O)c1ccoc1Cn1cnc2ccsc2c1=O	i	0.98	95.0
O=C(Cn1cnc2ccsc2c1=O)NCc1ccco1	i	1.02	102.0
CN(C)S(=O)(=O)N1CCN(C(=O)Nc2cccc3c2CCCC3)CC1	i	0.97	102.0
Clc1cc(CN2CCN(c3ncccn3)CC2)cc2c1OCO2	i	1.01	104.0
O=c1n(CO)nc2ccccn12	i	0.96	82.0
Cc1cc(C)c(S(=O)(=O)N2CCN(Cn3c(C)nc4cc5c(cc43)OCCO5)CC2)c(C)c1	i	1.02	112.0
CC(C)=CCCC(C)CCNCc1ccc(C)cc1 (centres undefined)	i	0.99	105.0
CN(C)S(=O)(=O)c1ccc(C(=O)OC2CCCCCC2)o1	i	0.82	69.0

Structures listed so far that contain sulfur (nine):
SMILES	total CFTR	total CFTR fold 10 ug/mL	total CFTR viability 10 ug/mL	others
CCONC(=O)c1sc2nc3n(c(=O)c2c1C)CCCCC3	i	0.96	92.0
O=[N+]([O-])c1ccc(Sc2nc3ccccc3s2)c2ncccc12	i	0.92	91.0
COC(=O)c1sc2nc(C)nc(N(C)Cc3cc(C)on3)c2c1C	i	0.96	101.0
O=C(c1ccc(OCCN2CCCCC2)cc1)c1c(-c2ccc(O)cc2)sc2cc(O)ccc12	i	.	.	total CFTR fold 25 µM=0.97&1.16&1.03;total CFTR viability 25 µM=91.0&86.0&78.0
COC(=O)c1ccoc1Cn1cnc2ccsc2c1=O	i	0.98	95.0
O=C(Cn1cnc2ccsc2c1=O)NCc1ccco1	i	1.02	102.0
CN(C)S(=O)(=O)N1CCN(C(=O)Nc2cccc3c2CCCC3)CC1	i	0.97	102.0
Cc1cc(C)c(S(=O)(=O)N2CCN(Cn3c(C)nc4cc5c(cc43)OCCO5)CC2)c(C)c1	i	1.02	112.0
CN(C)S(=O)(=O)c1ccc(C(=O)OC2CCCCCC2)o1	i	0.82	69.0

The listing picks up, starting six compounds before the break.
SMILES	total CFTR	total CFTR fold 10 ug/mL	total CFTR viability 10 ug/mL	others
CN(C)S(=O)(=O)N1CCN(C(=O)Nc2cccc3c2CCCC3)CC1	i	0.97	102.0
Clc1cc(CN2CCN(c3ncccn3)CC2)cc2c1OCO2	i	1.01	104.0
O=c1n(CO)nc2ccccn12	i	0.96	82.0
Cc1cc(C)c(S(=O)(=O)N2CCN(Cn3c(C)nc4cc5c(cc43)OCCO5)CC2)c(C)c1	i	1.02	112.0
CC(C)=CCCC(C)CCNCc1ccc(C)cc1 (centres undefined)	i	0.99	105.0
CN(C)S(=O)(=O)c1ccc(C(=O)OC2CCCCCC2)o1	i	0.82	69.0
O=C(Nc1nc2c(s1)CCC2)c1cc2c(s1)CCCCC2	i	0.95	90.0
Cc1nc2c3ccccc3nc(SC(C)C(=O)N3CCc4ccccc43)n2n1 (centres undefined)	i	1.08	98.0
Cc1c(C2Nc3ccccc3C(=O)N2C2CCCC2)cc(C#N)n1C (centres undefined)	i	1	89.0
O=C1NCCCCC1Sc1ncnc2ccsc12 (centres undefined)	i	0.94	99.0
O=C(OCc1cn2cc(Cl)ccc2n1)c1ccc(Cl)s1	i	0.92	90.0
N#CCCN1CCN(c2ccc(Br)cn2)CC1	i	0.99	90.0
CCNC(=O)NC(=O)CN1CCCC1C(=O)N(C)C (centres undefined)	i	1.01	95.0
CCN(CC)Cc1ccc(CNc2ccc3nnnn3n2)cc1	i	1.01	100.0
CCC(=O)OCC(=O)[C@@]1(OC(=O)CC)[C@@H](C)C[C@H]2[C@@H]3CCC4=CC(=O)C=C[C@]4(C)[C@@]3(F)[C@@H](O)C[C@@]21C	i	.	.	total CFTR fold 25 µM=0.99;total CFTR viability 25 µM=82.0
NCC(=O)Nc1nccs1	i	1.05	105.0
O=C(Nc1ccc(C23CC4CC(CC(C4)C2)C3)cc1)C1CC(=O)N(C2CC2)C1 (centres undefined)	i	0.88	83.0
CC(=O)c1c(C)[nH]c(C(=O)CSc2nnnn2C2CCCCC2)c1C	i	0.96	90.0
CC1CN(CCN2C(=O)NC(C)(C)C2=O)CC(C)O1 (centres undefined)	i	0.96	95.0
O=C(c1cc2cc(Cl)ccc2o1)c1ccc(Cl)cc1Cl	i	0.92	84.0
O=S(=O)(NCCc1ccc2c(c1)OCO2)C1=Cc2ccccc2CC1	i	0.88	81.0
Cc1ccccc1-n1c(SCCOC(C)C)nnc1N1CCOCC1	i	0.95	91.0
O=C(c1cc2ccccc2oc1=O)N1CCCSc2ccccc21	i	1.13	107.0
CC(=O)N1CCN(c2ccc(OC[C@H]3CO[C@](Cn4ccnc4)(c4ccc(Cl)cc4Cl)O3)cc2)CC1	i	.	.	total CFTR fold 25 µM=0.81&0.84;total CFTR viability 25 µM=94.0&88.0
CCOc1cc(CN(Cn2nc3ccccn3c2=S)C2CC2)ccc1OC(F)F	i	1.01	98.0
CC(=O)c1c[nH]c(C(=O)OCC(=O)c2ccco2)c1	i	1.09	101.0
O=C1NC2(CCCC2)C(=O)N1Cc1ccc(F)cc1Br	i	1.09	90.0
NC1=NC(=O)c2ccccc21	i	1.17	96.0
CC(NCC(O)c1ccccc1)c1ccccc1 (centres undefined)	i	1.06	103.0
CC(C)N1C(=O)C(=O)N(Cc2cc(-c3ccco3)on2)C1=O	i	1.01	93.0
COc1ccc(C(C)N)cc1OC (centres undefined)	i	1.14	106.0
CCN(CC)S(=O)(=O)N1CCN(Cn2nc3ccccn3c2=O)CC1	i	0.95	105.0
O=C(NCCc1cccs1)C1CCOCC1	i	0.95	96.0
O=C(OCc1cc(=O)oc2cc(O)ccc12)c1ccc2c(c1)S(=O)(=O)c1ccccc1C2=O	i	1.15	92.0
O=c1ccc2ccc(Oc3c(-c4ccccc4)c4ccccc4[nH]c3=O)cc2o1	i	1	91.0
Cc1cc(C)n(-c2ccc(=S)n(CN(C)Cc3ccc(C(C)C)cc3)n2)n1	i	1.05	100.0
Cc1nnc(SCn2nnc3ccccc3c2=O)s1	i	1.05	108.0
COc1ccccc1N1CCN(CC(O)COc2cccc3ccccc23)CC1 (centres undefined)	i	.	.	total CFTR fold 25 µM=1.09&1&1.04;total CFTR viability 25 µM=102.0&89.0&95.0
Cc1nc(C2(NC(=O)CC34CC5CC(CC(Br)(C5)C3)C4)CCCC2)no1	i	1	96.0
O=C(CN1C(=O)CSc2ccccc21)NC1=NCCS1	i	1.02	85.0
Cc1ccc(C)c(S(=O)(=O)Nc2cc3c(cc2[N+](=O)[O-])OCCO3)c1	i	1.06	79.0
CCn1c(SCc2csc(-c3ccc(C)o3)n2)nnc1C1CC1	i	1.07	102.0
Cc1nc(SC(C)C#N)c2c3c(sc2n1)CCC3 (centres undefined)	i	0.97	104.0
CC(c1nc(C2CC2)no1)N1CCN(c2ccc(S(C)(=O)=O)cc2[N+](=O)[O-])CC1 (centres undefined)	i	0.95	84.0
C#CCOc1ccc(CNCc2ccc(C)cc2)cc1OCC	i	1.06	89.0
CCOc1cc(Br)c(CN2C(=O)C(=O)N(C(C)C)C2=O)cc1OCC	i	1.02	94.0
Cc1cc(-c2ccc(N3CCOCC3)c(F)c2)nc2cc3c(cc12)OCO3	i	1.17	88.0
CC(=O)c1c(C)[nH]c(C(O)(c2nc3ccccc3s2)C(F)(F)F)c1C (centres undefined)	i	0.89	92.0
CCN(CC(=O)Nc1sccc1C#N)CC(=O)NC1CCS(=O)(=O)C1 (centres undefined)	i	1.09	116.0
CC1CCN(Cn2c(=S)ncn2-c2ccccc2)CC1	i	1.16	92.0
Cn1c(SCc2nc(-c3cccc([N+](=O)[O-])c3)no2)nnc1C(F)(F)F	i	1.05	89.0
O=C(Cn1nc(-c2cccs2)oc1=O)c1ccc(Cl)s1	i	1.1	101.0
CCC(OC(=O)c1cc(C(C)=O)c[nH]1)C(=O)Nc1cc(C)on1 (centres undefined)	i	1.09	100.0
CSCCC1NC(=S)N(c2cc(C)ccc2C)C1=O (centres undefined)	i	1.06	91.0
CCC(C)(C)NC(=O)COC(=O)c1c(C)noc1C	i	1.11	89.0
CC(C)CNS(=O)(=O)c1cc(F)cc(F)c1	i	1.03	106.0
CC(=O)c1c(C)[nH]c(-c2csc(/C(C#N)=C\c3ccc[nH]3)n2)c1C	6.15	1.07	60.0

An excerpt, so the mix of outcomes need not match the whole.
